# SARS PLpro yeast: inhibitors of SARS-CoV papain-like protease in yeast. 330,000 compounds, 0.19% hits. S. cerevisiae expressing SARS-CoV PLpro, growth rescue; control for the full effect not named in the record. Potency, µM (titrated, usually from 32.9 µM), for the others: at the highest dose activity, positive = growth rescue; active means well fitted rising curve with a large enough effect; inconclusive means small, poorly fitted or top-dose-only effect; inactive means no such curve, though single readings can be large or run the other way; also: 0% is about no effect; nearly all actives have a fitted effect of over 55% in size; growth read by luminescence after 48 h
# MARV entry inh: Marburg virus entry inhibition; Marburg virus pseudotyped entry inhibition, cell reporter; control for the full effect not named in the record; about a third of the inactives were read at about 46 µM; Potency, µM (doses to about 37.8 µM), for the others: top-dose activity change, negative = inhibition, most hits filed as inhibitors; 300,000 compounds, 1.8% hits; AID 540276; active = well fitted inhibition curve with a large enough effect; inconclusive = small, poorly fitted or top-dose-only effect, or effect the other way; inactive = flat fitted curve, though single readings scatter; tested in HEK293 cells; about a fifth of its hits are not listed in these tables; also: % is scaled to controls: 0 for no effect and ±100 for the full control effect; luciferase read-out
# NS1 inh: blocks influenza NS1 protein function. 270,000 compounds, 0.4% hits. Potency, µM (series often up to 46.1 µM), inactives show at the highest dose activity, positive = more growth. S. cerevisiae slowed by influenza A NS1, growth recovery by OD600; active means well fitted rising curve with a large enough effect; inconclusive means small, poorly fitted or top-dose-only effect; inactive means no such curve, though single readings can be large or run the other way; also: nearly all actives have a fitted effect of over 50% in size
#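 S. cerevisiae expressing influenza A NS1, grown in glucose, washed, then diluted 1:100 into pH 6.0 -URA galactose medium with 23 nl compound. Growth recovery read as OD600; NS1-free strain serves as control.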
# Cruzain Triton: cruzain (T. cruzi) inhibition with detergent; P25779; purified cruzain, Z-FR-AMC fluorescence, 0.01% Triton; Potency, µM, for the others: max response, negative = inhibition, most hits filed as inhibitors; 200,000 compounds, 0.43% hits; AID 1478;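 also: plate controls were neutral wells for no effect and buffer without enzyme for full effect; nearly all actives have a fitted effect of over 40% in size; top concentration of the series not given in the record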
# Target sequence (P25779 123-467 limits assumed): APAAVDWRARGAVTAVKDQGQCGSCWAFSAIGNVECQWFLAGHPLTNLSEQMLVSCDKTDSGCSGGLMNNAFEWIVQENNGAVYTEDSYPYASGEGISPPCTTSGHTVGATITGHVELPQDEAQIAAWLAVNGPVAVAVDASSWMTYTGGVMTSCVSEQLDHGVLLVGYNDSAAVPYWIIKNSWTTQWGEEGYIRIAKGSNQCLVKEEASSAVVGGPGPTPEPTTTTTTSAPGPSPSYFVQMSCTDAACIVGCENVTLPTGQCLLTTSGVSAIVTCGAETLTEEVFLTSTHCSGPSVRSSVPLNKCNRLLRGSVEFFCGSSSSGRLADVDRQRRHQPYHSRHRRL
#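 15 min RT preincubation of 1.5 nM cruzain with compound, then 2 uM Z-FR-AMC added; kinetic AMC fluorescence, 60 s delta. Triton X-100 0.01%, pH 5.5.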
# Cruzain noTriton: cruzain (T. cruzi) inhibition without detergent. P25779. purified cruzain, Z-FR-AMC fluorescence, no detergent. Potency, µM, for the others: max response, negative = inhibition, usual class: inhibitors. 200,000 compounds, 2.3% hits. AID 1476;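 also: plate controls were enzyme without inhibitor for no effect and buffer without enzyme for full effect; nearly all actives have a fitted effect of over 40% in size; top concentration of the series not given in the record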
#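 Detergent-free condition (0.00005% Triton X-100) in acetate buffer pH 5.5 with DTT. 1.5 nM enzyme and compound were pre-mixed 15 min, then 2 uM Z-FR-AMC substrate added; reaction progress from fluorescence change between first and third reads (60 s).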
# 2A StopGo: FMDV 2A StopGo reporter, luciferase signal; human cells with a luciferase reporter of 2A StopGo recoding; control for the full effect not named in the record; Potency, µM (titrated, usually from 57.9 µM), inactives show at the top dose signal change, negative = less light; 410,000 compounds, 1.2% hits; AID 1159524; active = well fitted falling curve with a large enough effect; inconclusive = small, poorly fitted or top-dose-only effect; inactive = no such curve, though single readings can be large or run the other way; tested in HEK293T cells; also: % is scaled to controls: 0 for no effect and ±100 for the full control effect; nearly all actives have a fitted effect of over 45% in size; luciferase light after 4 h
# Lassa entry inh: blocks Lassa virus binding to or entry into cells. 300,000 compounds, 1.2% hits. Lassa virus pseudotype entry inhibition, cell reporter; control for the full effect not named in the record. Potency, µM (titrated, usually from 37.9 µM), for the others: at the top dose activity change, negative = inhibition, hits mostly inhibitors; active means well fitted inhibition curve with a large enough effect; inconclusive means small, poorly fitted or top-dose-only effect, or effect the other way; inactive means flat fitted curve, though single readings scatter; tested in HEK293 cells; also: % is scaled to controls: 0 for no effect and ±100 for the full control effect; nearly all actives have a fitted effect of over 50% in size; luciferase read-out
# RE007 growth inh: less growth of the S. pombe RE007 Vpr strain. S. pombe RE007 Vpr strain, BacTiter-Glo ATP luminescence, 24 h; control for the full effect not named in the record. Potency, µM (doses to about 92.2 µM), inactives show top-dose activity change, negative = less growth. 360,000 compounds, 0.21% hits. AID 651644; active = well fitted falling curve with a large enough effect; inconclusive = small, poorly fitted or top-dose-only effect; inactive = no such curve, though single readings can be large or run the other way;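 also: % is scaled to controls: 0 for no effect and ±100 for the full control effect; nearly all actives have a fitted effect of over 50% in size; the assay follows cell death caused by Vpr and the record does not say whether a fall means rescue or toxicity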
#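 Fission yeast strain RE007, carrying one chromosomally integrated HIV-1 vpr copy, was seeded at OD 0.01 in PMG+AL medium with 23 nL pinned compound. After 24 h at 30 °C and 99% humidity, viability was read by BacTiter-Glo luminescence.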
# Active calls of the source: *; ? = inconclusive; . = not tested or not shown; [ ] = dose if it differs, or a comment. Unless noted, calls follow the shape of the dose curve; as a rule, active = well fitted curve in the direction sought with a large enough effect; inconclusive = small, poorly fitted or top-dose-only effect, or another doubt; inactive = no such curve, though single readings can be large; an effect the other way counts as inactive or inconclusive. Potency is read from the fitted curve at half-maximal effect.
SMILES,SARS PLpro yeast,MARV entry inh,NS1 inh,Cruzain Triton,Cruzain noTriton,2A StopGo,Lassa entry inh,RE007 growth inh
COCCCNC(=O)C1CC(=O)N(c2ccc(C)cc2)C1 (stereo not given),-6%,12%,2%,3.1%,-9%,-1%,-2%,-10%
O=C(NC1CCCCC1)C1CC(=O)N(c2ccc(Cl)cc2)C1 (stereo not given),9%,.,-5%,-0.2%,-18%,0%,.,8%
CC(C)CCN1C(=O)c2ccc(C(=O)Nc3ccccc3C(=O)O)cc2C1=O,-3%,.,-2%,.,.,48%[activator],.,10%
COc1ccc(NC(=O)c2sc3nc4c(cc3c2N)CCCCCC4)cc1Cl,.,3%[46.1 µM],.,-5.1%,-6%,?,-28%[46.1 µM],.
CCCC(=O)Nc1ccc(Br)cn1,5%,3%,-11%,2.4%,-3%,21%,?,3%
COc1ccc(CNC(=O)c2ccc3nc(CCc4ccccc4)oc3c2)c(OC)c1,.,.,.,-3.1%,?,-8%,?,.
Cc1cc(S(=O)(=O)NCc2ccccc2)ccc1OCC(=O)NCc1ccncc1,-1%,10%,2%,.,.,15%,-1%,0%
O=P(c1ccccc1)(c1ccccc1)C(O)c1ccc(Br)cc1 (stereo not given),-2%,-10%[46.1 µM],3%,.,.,1%,12%[46.1 µM],15%
Cc1oc2ccc(O)c(CN3CCOCC3)c2c1C(=O)Nc1cccc(Cl)c1C,.,-1%[46.1 µM],.,-1.8%,6%,-19%,-10%[46.1 µM],.
CC(C)(C)n1nc2c(c1NC(=O)COc1ccc(Cl)cc1)CS(=O)(=O)C2,0%,13%[46.1 µM],.,.,.,-21%,13%,25%
CCc1cccc(NS(=O)(=O)c2c(C)n[nH]c2C)c1,-3%,-1%,9%,3.1%,-4%,23%,23%,-2%
CCn1c(C(O)c2ccccc2)nc2ccccc21 (stereo not given),-1%,-5%,-8%,-0.3%,-6%,-16%,12%,3%
Cc1[nH]c2ccccc2c1N=Nc1c(C)n(C)n(-c2ccccc2)c1=O,1%,?,.,.,.,-8%,-28%[46.1 µM],-4%
Cc1c(C)n(CCc2c[nH]c3ccccc23)ccc1=O,-9%,-21%[46.1 µM],.,.,.,-4%,22%,-9%
Cc1ccc(C(=O)N2CCC(N3CCN(Cc4ccc(F)cc4)C(=O)C3=O)CC2)cc1,.,.,.,1.7%,2%,6%,1%[46.1 µM],.
COC(=O)C1=NNC2(c3ccc(C)cc3)C(=O)N(c3ccc(C)cc3)C(=O)C12 (stereo not given),0%,-2%[46.1 µM],-6%,.,.,-22%,0%,-8%
O=C(NCc1ccncc1)c1cccc(F)c1,0%,5%,-2%,2.1%,-3%,-15%,0%,-1%
CCCOc1ccc(CC(CC(=O)O)(C(=O)O)C(=O)O)cc1,16%,15%,7%,2.0%,0%,-21%,8%,6%
NS(=O)(=O)c1ccc(N/N=C/c2ccc(C(=O)O)cc2)c([N+](=O)[O-])c1,0%,.,3%,.,.,-14%,.,-11%
NS(=O)(=O)c1ccc(S(=O)(=O)c2ccccc2)nc1,.,11%,.,.,.,2%,1%,5%
Cc1ccc(C2=NN(CC(=O)NCCN(C)C)C(=O)CC2)cc1,0%,8%,-4%,.,.,6%,?,2%
COc1ccc(C(=O)N=S2CCN(C(=O)c3ccc(Cl)cc3)CC2)cc1,0%,.,-3%,.,.,-23%,.,3%
C/C(=N\S(=O)(=O)c1ccc(C)cc1)N(C)C,0%,11%,-4%,.,.,0%,9%,12%
O=C(Nc1ccc(Br)cc1)c1ccco1,-15%,?,-66%,-0.4%,1%,16%,3%,-2%
Cc1nc(Nc2ccc(Cl)c(Cl)c2)sc1C(/C=C/c1ccc2c(c1)OCO2)=NNc1ccc([N+](=O)[O-])cc1[N+](=O)[O-],.,-6%,.,.,.,11%,0%,-1%
O=C(NCc1cccnc1)C(=O)Nc1nc(-c2ccccc2)cs1,-4%,?,0%,.,.,47%[activator],-4%,-6%
Cc1ccc(NC(=O)Cn2cccc2)c(C)c1,17%,0%,-3%,-3.6%,-5%,14%,4%,-14%
Cc1ccc(-c2nc(CSCC(=O)N3CCN(C(=O)c4ccco4)CC3)c(C)o2)cc1,6%,0%,5%,0.8%,15%,?,.,4%
CC(OC(=O)c1cc(=O)[nH]c2ccccc12)C(=O)NC1CCCCC1C (stereo not given),-4%,16%,.,.,.,-8%,14%,14%
COc1cccc(-n2c(=O)c3sc4ccccc4c3n(Cc3c(F)cccc3Cl)c2=O)c1,.,4%[46.1 µM],.,0.0%,3%,?,-5%[46.1 µM],.
Cc1cc(C)c2cc(C#N)c(SCC(=O)Nc3ccc4c(c3)OCO4)nc2c1,1%,.,-54%,.,.,-23%,.,12%
CCOc1cccc(OCCOc2ccc(C(=O)c3ccccc3)cc2)c1,?,23%,1%,-21%,-8%,-23%,-18%,.
CCOc1cc(N2CCOCC2)c(OCC)cc1NC(=O)CN1C(=O)NC2(CCCCCCC2)C1=O,2%,-3%[46.1 µM],.,.,.,-6%,13%[46.1 µM],-5%
Cc1ccc(Nc2ccc(C(N)=O)cc2[N+](=O)[O-])cc1C,-23%,-13%,23%,-9.5%,7%,-2%,6%,-4%
C=CCC1(CC=C)CCCN1C(=O)CC1C(=O)NCCN1Cc1cccc(OC)c1OC (stereo not given),-1%,-5%[46.1 µM],2%,.,.,-4%,6%,-2%
C=C1CC(C(=O)N/N=C/c2ccc(O)cc2)C1,20%,-1%,-5%,-4.2%,-5%,7%,7%,4%
O=C(O)c1ccc(Cl)c2c1C1C=CCC1C(c1ccccn1)N2 (stereo not given),24%,2%,0%,-12%,19%,.,.,.
CN(C)Cc1c[nH]c2ccc([N+](=O)[O-])cc12,.,-14%[46.1 µM],.,.,.,4%,20%[46.1 µM],-2%
COc1cccc(-n2cc(C(=O)Oc3ccc(F)cc3)c3ccccc3c2=O)c1,.,.,.,-6.1%,0%,-24%,?,.
Cn1c(C(=O)N2CCN(c3ccc(F)cc3)CC2)cc2ccccc21,-5%,.,0%,.,.,2%,.,3%
O=C(NCC(c1cccs1)N1CCOCC1)c1ccccc1NS(=O)(=O)c1ccc(Cl)c([N+](=O)[O-])c1 (stereo not given),-6%,0%,-13%,-6.8%,13%,-18%,.,-14%
CCCOc1ccc(CNC(=O)c2ccc3c(c2)N(Cc2ccccc2)CCS3)cc1,.,?,.,1.9%,2%,19%,.,.
O=C(Nc1ccc(OC(F)F)c(Cl)c1)C(c1ccccc1)c1ccccc1,1%,.,-4%,-7.9%,3%,40µM*,.,11%
O=c1nc2sc3ccccc3n2c(=O)n1-c1ccc(Cl)c(Cl)c1,.,16%[46.1 µM],.,-1.2%,5%,23%,1%[46.1 µM],.
CCc1ccccc1N(C)C(=O)Cc1c(C(=O)O)c(C)cn1C,.,.,.,0.9%,-9%,-16%,-3%[46.1 µM],.
O=S(=O)(CC12C3C4C5C1C2C(Br)(C43)C51OCCO1)c1ccccc1 (stereo not given),-10%,7%,.,.,.,-12%,-9%,-8%
CCN1CCN(C(=O)c2c(-c3ccccc3)noc2C)CC1,-1%,-2%[46.1 µM],2%,.,.,5%,4%,6%
O=[N+]([O-])c1ccccc1/C=N/NC1=NCCCCC1,-7%,?,-7%,-7.2%,-2%,22%,16%,0%
Cc1ccc(C)c(S(=O)(=O)Nc2ccccc2C(=O)Nc2cc(C)on2)c1,9%,-1%,9%,0.8%,?,-23%,?,16%
Cc1ccc(S(=O)(=O)Nc2cccc(Oc3cnccn3)c2)cc1,0%,?,-4%,.,.,40%[activator],?,15%
O=C(CCN1CCCCC1)N1CCc2c([nH]c3ccccc23)C1c1cccnc1 (stereo not given),.,.,.,.,.,-17%,2%,3%
Cn1c(SCC(N)=O)nnc1-c1ccccc1,11%,26%,-8%,-0.9%,-5%,.,12%,9%
COc1ccc(OS(=O)(=O)c2c(C)noc2C)cc1,0%,-2%[46.1 µM],-1%,.,.,-17%,16%[46.1 µM],2%
c1ccc(C(Cc2nc(-c3ccccn3)no2)c2ccccc2)cc1,-19%,?,-63%,-6.9%,-1%,-26%,-30%,23%
COc1ccc(/C=N/N2C(=O)c3ccccc3C2=O)cc1,13%,?,12%,0.0%,-2%,56%[activator],-4%,15%
COC(=O)c1ccc(S(=O)(=O)NCCSc2nnc3c4ccccc4n(C)c3n2)cc1,-5%,?,-49%,-3.0%,-1%,-2%,1%,-2%
Cc1nc(Sc2nnnn2-c2ccccc2)c(C#N)c(C)c1C,-3%,9%,-4%,1.3%,-6%,-9%,.,-5%
S=C(Nc1ccc(Cl)c(Cl)c1)N1CCOCC1,-1%,-2%,-10%,-1.2%,8%,20%,-10%,-19%
COc1ccc(CN2C3CCC2CC(NC(=O)c2cc(OC)c(OC)c(OC)c2)C3)cc1 (stereo not given),4%,.,14%,.,.,-12%,.,-2%
Cc1[nH]n(-c2ccccc2)c(=O)c1C(c1cc(Cl)ccc1O)c1c(C)[nH]n(-c2ccccc2)c1=O,.,.,.,-11%,?,-17%,-10%[46.1 µM],.
# New compounds follow
SMILES,SARS PLpro yeast,MARV entry inh,NS1 inh,Cruzain Triton,Cruzain noTriton,2A StopGo,Lassa entry inh,RE007 growth inh
Clc1ccc(CSc2ncccn2)cc1,-3%,?,-1%,-4.1%,-2%,36%[activator],9%,2%
O=C(CCN1C(=O)C2CC=C(Cl)CC2C1=O)NCc1ccco1 (stereo not given),4%,9%,0%,-3.8%,7%,-4%,12%,-3%
C=C(C)c1cccc(C(C)(C)NC(=O)NCCCN2CCCC2=O)c1,21%,2%,-4%,4.2%,-9%,17%,-5%,-14%
CCC(C)Nc1nc2c(c(=O)[nH]c(=O)n2C)n1CCCc1ccccc1 (stereo not given),-6%,?,-2%,.,.,-23%,-19%[46.1 µM],8%
COc1ccccc1-c1noc(-c2ccccc2C(=O)Nc2ccccc2)n1,-6%,-5%,0%,0.2%,0%,-15%,12%,-2%

# Compound activity: PubChem, National Center for Advancing Translational Sciences (NCATS)
